# Marburg entry inh: Marburg virus entry inhibition; hit rate 1.8% among 300,000; Potency, µM (series often up to 37.8 µM), for inactives: top-dose activity change, negative = inhibition, actives largely listed as inhibitors; Marburg virus pseudotyped entry inhibition, cell reporter; control for the full effect not named in the record; about a third of the inactives were read at about 46 µM; active = well fitted inhibition curve with a large enough effect; inconclusive = small, poorly fitted or top-dose-only effect, or effect the other way; inactive = flat fitted curve, though single readings scatter; tested in HEK293 cells; about a fifth of its hits are not listed in these tables; also: luciferase read-out
# StopGo reporter: lowers the luciferase signal of an FMDV 2A StopGo reporter; human cells with a luciferase reporter of 2A StopGo recoding; control for the full effect not named in the record; hit rate 1.2% among 410,000; Potency, µM (titrated, usually from 57.9 µM), without a hit: top-dose signal change, negative = less light; active = well fitted falling curve with a large enough effect; inconclusive = small, poorly fitted or top-dose-only effect; inactive = no such curve, though single readings can be large or run the other way; tested in HEK293T cells; also: nearly all actives have a fitted effect of over 45% in size; luciferase light after 4 h
# RE007 growth inh: less growth of the S. pombe RE007 Vpr strain; hit rate 0.21% among 360,000; Potency, µM (highest dose often 92.2 µM), for the others: at the top dose activity change, negative = less growth; S. pombe RE007 Vpr strain, BacTiter-Glo ATP luminescence, 24 h; control for the full effect not named in the record; AID 651644; active = well fitted falling curve with a large enough effect; inconclusive = small, poorly fitted or top-dose-only effect; inactive = no such curve, though single readings can be large or run the other way;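 also: nearly all actives have a fitted effect of over 50% in size; the assay follows cell death caused by Vpr and the record does not say whether a fall means rescue or toxicity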
#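 Fission yeast strain RE007, carrying one chromosomally integrated HIV-1 vpr copy, was seeded at OD 0.01 in PMG+AL medium with 23 nL pinned compound. After 24 h at 30 °C and 99% humidity, viability was read by BacTiter-Glo luminescence.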
# Active calls of the source: *; ? = inconclusive; & = joins results of further samples; [ ] = another dose, or the depositor's remark. % is scaled to controls: 0 for no effect and ±100 for the full control effect; potency is read from the fitted curve at half-maximal effect. Not all compounds are listed; the hit share may differ from the screen's.
compound	Marburg entry inh	StopGo reporter	RE007 growth inh
O=C(NCC1CC1)c1cc(-c2ccccc2)nn1CC1CC(c2cccnc2)=NO1 (stereo not drawn)	2%	-8%	-5%
Cc1ccc(-c2ccc(CN3C(CC(C)C)C(=O)N(Cc4cn(CCC5OCCO5)nn4)CCS3(=O)=O)cc2)cc1 (stereo not drawn)	?	?	21%
COc1ccc(NC(=O)C[C@H]2C(=O)N(c3ccc(Br)cc3)C[C@@H]2CSC)cc1	?	?	-9%
COc1ccc2c(CN3CCN(C(C)=O)CC3)cc(=O)oc2c1	?	-6%	1%
CCOC(=O)N1C2=NC(C(=O)OC)=C(C(=O)OC)[C@@H]3N(Cc4ccccc4)c4ccccc4[C@]23C[C@H]1C(=O)OC	-23%[14.2 µM]	-27%	-2%
C=CCN(CC=C)Cc1cc(=O)oc2cc(C)c(C)cc12	?	-15%	-24%
CC(C)C1C(=O)N(Cc2cn(CC3CCCCC3)nn2)CCS(=O)(=O)N1Cc1ccc(-c2ccc(Cl)nc2)cc1 (stereo not drawn)	?	-24%	-17%
Cc1cccc(CN2CCN(C3CN(C4CCCC4)S(=O)(=O)C3)CC2)c1 (stereo not drawn)	?	0%	-19%
COc1ccc(N2C[C@H](CSC)[C@@H](CC(=O)Nc3ccccc3)C2=O)cc1	?	?	26%
CCCCNCCS(=O)(=O)NCc1ccccc1OC	?	-12%	2%
O=[N+]([O-])c1cccc(COc2cccc(CO)c2)c1	?	51%[activator]	-10%
CC(=O)c1cc(C)c(OCc2cn(CC(=O)c3ccc(O)cc3)nn2)c(C)c1	?	0%	4%
CC1C(=O)N(Cc2cn(Cc3ccco3)nn2)CCS(=O)(=O)N1Cc1ccc(-c2ccc(F)cc2Cl)cc1 (stereo not drawn)	?	-25%	0%
COc1ccc(-c2nn(-c3ccccc3)cc2C(=O)N(C)CC(=O)Nc2ccccc2Br)cc1	1%	-3%	3%
O=C(Nc1cccc(C(=O)NC2CC2)c1)c1ccccc1	?	18%	-9%
Cc1cc2oc(=O)cc(CN3CCCC3)c2cc1C	?	6%	1%
COCCN1C(=O)N[C@@H](c2cccc(C(F)(F)F)c2)C(C(=O)OC)=C1C	-3%&-3%[14.2 µM]	-5%	-4%
CN(Cc1ccccc1)Cc1cc(=O)oc2ccc3ccccc3c12	?	-9%	-5%
Cn1ccc2c(-c3ccc(F)cc3F)cc3c(c21)C1CCC3C1 (stereo not drawn)	?	-26%	-17%
CCCCN1C[C@H](CSC)[C@@H](CC(=O)Nc2ccc(OC)cc2)C1=O	?	-21%	9%

CCOC(=O)CN1C(=O)N[C@@H](CCc2ccccc2)C(C(C)=O)=C1C
  Marburg entry inh = 4%&4%[14.2 µM]	StopGo reporter = -25%	RE007 growth inh = -2%

Cc1ccc(-c2ccc(CN3C(C)C(=O)N(Cc4cn(Cc5ccco5)nn4)CCS3(=O)=O)cc2)cc1 (stereo not drawn)
  Marburg entry inh = ?	StopGo reporter = -9%	RE007 growth inh = -3%

CCOC(=O)CN1C(=O)N[C@@H](c2cccc(C(F)(F)F)c2)[C@H](C(C)=O)[C@H]1C
  Marburg entry inh = ?	StopGo reporter = 0%	RE007 growth inh = 6%

Cc1ccc([C@H]2C[C@H](n3cc(C4CC4)nn3)[C@@H](O)CN2C(=O)C2CCCCC2)cc1
  Marburg entry inh = ?	StopGo reporter = -4%	RE007 growth inh = -4%

CCOC(=O)CN1C(=O)N[C@@H](CCc2ccccc2)[C@H](C(=O)OC)[C@H]1C
  Marburg entry inh = -15%&-15%&-15%[14.2 µM]	StopGo reporter = 0%	RE007 growth inh = -16%

CCOC(=O)c1c(N/C=C(\C#N)c2nc(-c3ccc(OC(C)=O)cc3)cs2)sc2c1CCC2
  Marburg entry inh = 1%	StopGo reporter = -20%	RE007 growth inh = 9%

COc1ccc([C@H]2C[C@@H](n3cc(COC(=O)c4ccccc4)nn3)[C@H](O)CN2CC2CCCCC2)cc1
  Marburg entry inh = ?	StopGo reporter = 21%	RE007 growth inh = -2%

Cc1ccc(-c2csc(NC(CO)c3nc4ccccc4n3CCOCCO)n2)cc1 (stereo not drawn)
  Marburg entry inh = 0%	StopGo reporter = 11%	RE007 growth inh = -14%

COC(=O)[C@H]1[C@@H](C)N(CCc2cc(OC)c(OC)c(OC)c2)C(=O)N[C@H]1c1ccccc1
  Marburg entry inh = -24%&-24%[14.2 µM]	StopGo reporter = -14%	RE007 growth inh = -13%

CCOC(=O)CN1C(=O)N[C@@H](c2cccs2)C(C(=O)OC)=C1C
  Marburg entry inh = -17%&-17%[14.2 µM]	StopGo reporter = -25%	RE007 growth inh = -1%

C#CCCOC(=O)N1C2=NC(C(=O)OC)=C(C(=O)OC)[C@@H]3Nc4ccccc4[C@]23C[C@H]1C(=O)OC
  Marburg entry inh = -19%[14.2 µM]	StopGo reporter = 4%	RE007 growth inh = 7%

COC(=O)C1=C(C)N(Cc2ccccc2)C(=O)N[C@H]1c1cccc(F)c1
  Marburg entry inh = 3%&3%[14.2 µM]	StopGo reporter = -7%	RE007 growth inh = 13%

# Random excerpt: 2 records from the list.
CC(=O)c1cc(C)c(OCc2cn(CC(=O)c3ccc(O)cc3)nn2)c(C)c1
  Marburg entry inh = ?	StopGo reporter = 0%	RE007 growth inh = 4%

Cc1ccc(-c2ccc(CN3C(C)C(=O)N(Cc4cn(Cc5ccco5)nn4)CCS3(=O)=O)cc2)cc1 (stereo not drawn)
  Marburg entry inh = ?	StopGo reporter = -9%	RE007 growth inh = -3%

# Individual results from the entries so far.
# In RE007 growth inh, Cn1ccc2c(-c3ccc(F)cc3F)cc3c(c21)C1CCC3C1 (stereo not drawn) reads -17%
# In StopGo reporter, C=CCN(CC=C)Cc1cc(=O)oc2cc(C)c(C)cc12 reads -15%

# Compounds shown so far containing four or more nitrogen atoms:
O=C(NCC1CC1)c1cc(-c2ccccc2)nn1CC1CC(c2cccnc2)=NO1 (stereo not drawn)
  Marburg entry inh = 2%	StopGo reporter = -8%	RE007 growth inh = -5%

Cc1ccc(-c2ccc(CN3C(CC(C)C)C(=O)N(Cc4cn(CCC5OCCO5)nn4)CCS3(=O)=O)cc2)cc1 (stereo not drawn)
  Marburg entry inh = ?	StopGo reporter = ?	RE007 growth inh = 21%

CC(C)C1C(=O)N(Cc2cn(CC3CCCCC3)nn2)CCS(=O)(=O)N1Cc1ccc(-c2ccc(Cl)nc2)cc1 (stereo not drawn)
  Marburg entry inh = ?	StopGo reporter = -24%	RE007 growth inh = -17%

CC1C(=O)N(Cc2cn(Cc3ccco3)nn2)CCS(=O)(=O)N1Cc1ccc(-c2ccc(F)cc2Cl)cc1 (stereo not drawn)
  Marburg entry inh = ?	StopGo reporter = -25%	RE007 growth inh = 0%

COc1ccc(-c2nn(-c3ccccc3)cc2C(=O)N(C)CC(=O)Nc2ccccc2Br)cc1
  Marburg entry inh = 1%	StopGo reporter = -3%	RE007 growth inh = 3%

Cc1ccc(-c2ccc(CN3C(C)C(=O)N(Cc4cn(Cc5ccco5)nn4)CCS3(=O)=O)cc2)cc1 (stereo not drawn)
  Marburg entry inh = ?	StopGo reporter = -9%	RE007 growth inh = -3%

Cc1ccc([C@H]2C[C@H](n3cc(C4CC4)nn3)[C@@H](O)CN2C(=O)C2CCCCC2)cc1
  Marburg entry inh = ?	StopGo reporter = -4%	RE007 growth inh = -4%

COc1ccc([C@H]2C[C@@H](n3cc(COC(=O)c4ccccc4)nn3)[C@H](O)CN2CC2CCCCC2)cc1
  Marburg entry inh = ?	StopGo reporter = 21%	RE007 growth inh = -2%

Cc1ccc(-c2csc(NC(CO)c3nc4ccccc4n3CCOCCO)n2)cc1 (stereo not drawn)
  Marburg entry inh = 0%	StopGo reporter = 11%	RE007 growth inh = -14%
